Rango complex inh – qHTS Assay for Inhibitors of Rango (Ran-regulated importin-beta cargo) - Importin beta complex formation. Rango CFP/YFP FRET sensor + importin beta, 45 min. Potency, µM (highest dose often 92.2 µM), inactives show at the top dose inhibition of complex formation. 340,000 compounds, 0.031% hits. AID 540263, 2011; active = rising FRET ratio curve, often small or poorly fitted; inconclusive = mostly compound fluorescence or quenching in the first reads; inactive = flat curves in all reads;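 note: potency is the fitted concentration of half-maximal effect; 0% = DMSO wells and 100% = buffer wells lacking importin beta; nearly all actives have a fitted effect of over 15% in size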
Target sequence (Q14974 whole entry, looked up): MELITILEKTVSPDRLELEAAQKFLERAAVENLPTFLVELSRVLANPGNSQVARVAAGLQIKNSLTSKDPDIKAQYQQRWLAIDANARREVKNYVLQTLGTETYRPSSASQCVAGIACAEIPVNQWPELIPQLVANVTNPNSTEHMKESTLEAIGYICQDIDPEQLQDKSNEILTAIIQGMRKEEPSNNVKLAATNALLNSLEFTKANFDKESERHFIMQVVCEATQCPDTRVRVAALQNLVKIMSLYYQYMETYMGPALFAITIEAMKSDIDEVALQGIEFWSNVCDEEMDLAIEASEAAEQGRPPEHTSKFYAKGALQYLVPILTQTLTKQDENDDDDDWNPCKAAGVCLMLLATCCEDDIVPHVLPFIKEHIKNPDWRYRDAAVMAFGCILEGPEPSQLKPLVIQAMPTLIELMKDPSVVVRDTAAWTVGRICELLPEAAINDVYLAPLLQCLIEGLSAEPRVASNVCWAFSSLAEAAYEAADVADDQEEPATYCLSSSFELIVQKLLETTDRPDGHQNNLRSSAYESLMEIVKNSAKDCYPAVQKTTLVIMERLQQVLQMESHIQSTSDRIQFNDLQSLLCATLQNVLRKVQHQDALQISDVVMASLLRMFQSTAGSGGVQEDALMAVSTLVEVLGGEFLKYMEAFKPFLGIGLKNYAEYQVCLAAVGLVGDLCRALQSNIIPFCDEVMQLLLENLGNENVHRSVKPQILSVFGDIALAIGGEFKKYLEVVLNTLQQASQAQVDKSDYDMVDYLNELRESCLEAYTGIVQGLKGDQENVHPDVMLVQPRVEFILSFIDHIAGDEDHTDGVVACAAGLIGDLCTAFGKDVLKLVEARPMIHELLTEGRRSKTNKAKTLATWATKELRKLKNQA
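Inhibition scored from the CFP 486 nm/YFP 530 nm FRET ratio 45 min after adding 0.125 microM importin beta to 50 nM Rango biosensor preincubated 5 min with compound (room temperature, PBS with DTT, Tween-20, BSA). No-importin wells as positive control.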
GLA inh pH 4.5 – qHTS Assay for Inhibitors of Human alpha-Galactosidase at pH 4.5; Alpha-galactosidase A (Homo sapiens), P06280; purified enzyme, 4-MU-alpha-Gal fluorescence, pH 4.5; activity change, negative = inhibition, % at 105 µM; 230,000 tested, under 10 active; AID 1467, 2008; inconclusive = small, poorly fitted or top-dose-only inhibition, or a rising curve; inactive = flat fitted curve, though single readings scatter; no compound was filed as active;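 note: 0% = full activity with enzyme and -100% = basal without enzyme; dose as in the result columns while the protocol names 77 µM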
Rango dissoc inh – qHTS Assay for Inhibitors of RanGTP induced Rango (Ran-regulated importin-beta cargo) - Importin beta complex dissociation. Snurportin-1 (Homo sapiens) + GTP-binding nuclear protein Ran (Homo sapiens) + Importin …. Biochemical FRET Rango-importin beta, RanGTP-induced dissociation. Potency, µM (highest dose often 46.1 µM), for inactives: top-dose activity change, negative = inhibition. 340,000 compounds, 0.071% hits. AID 540253, 2011; active means falling FRET ratio curve, often poorly fitted, with flat reads before Ran was added; inconclusive means other falling curves, or compound fluorescence or quenching; inactive means flat or rising ratio curve;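 note: potency is the fitted concentration of half-maximal effect; % of control where 0% means no effect; nearly all actives have a fitted effect of over 45% in size; -100% = wells without RanGTP and RCC1; the record marks most hits as doubtful in a second field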
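FRET read at 45 min, room temperature: inhibitors block the CFP/YFP signal rise when RanGTP (0.6 uM Ran, 2 mM GTP, 0.2 uM RCC1) frees Rango (0.1 uM) from importin beta (0.25 uM). Pre-read after 5 min compound exposure flags interference.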
miR-21 reporter – qHTS Assay for Modulators of miRNAs and/orActivators of miR-21; HeLa miR-21 FLuc reporter, luciferase, 48 h; 340,000 tested, under 10 active; Potency, µM (doses to about 38.3 µM), inactives show top-dose reporter change, positive = more light; active = well fitted rising curve with a large enough effect; inconclusive = small, poorly fitted or top-dose-only effect; inactive = no such curve, though single readings can be large or run the other way;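 note: % of control where 0% means no effect; miR-21 action dims this reporter so a rising signal means less miR-21 action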
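HeLa cells endogenously expressing miR-21, stably carrying CMV-driven firefly luciferase with a downstream miR-21 binding site, 2000 cells/well. Titrations up to approximately 40 uM, 48 hours; luciferase luminescence read.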
* = called active by the depositor; & = joins results of further samples. Not all compounds are listed, so the mix of outcomes need not match the whole.

What do the screens show for `O=C(Nc1cccc(C(F)(F)F)c1)c1scc2c1OCCO2`?
Rango complex inh: 3.1%; GLA inh pH 4.5: 4; Rango dissoc inh: 0%; miR-21 reporter: -22%

How did CN1CCN(c2ccc(S(=O)(=O)N3CCCCC3)cc2NC(=O)/C=C/c2ccc(Cl)c([N+](=O)[O-])c2)CC1 do in these assays?
Rango complex inh: 0.5%; Rango dissoc inh: -1%

What do the screens show for `Cc1ccc(-c2nc3ccccc3o2)cc1NC(=S)NC(=O)c1cccs1`?
Rango complex inh: -0.4%; GLA inh pH 4.5: -17; Rango dissoc inh: 12%; miR-21 reporter: -52%

Results for Cc1cc(C)n(-c2nc(SCCN(C)C)c3c4c(sc3n2)COC(C)(C)C4)n1 ?
Rango complex inh: 2.8%; GLA inh pH 4.5: -13; Rango dissoc inh: 5%; miR-21 reporter: 12%

What do the screens show for `COc1ccc(S(=O)(=O)CC(=O)Nc2nnc(C(F)(F)F)s2)cc1`?
Rango complex inh: 0.1%; Rango dissoc inh: 24%; miR-21 reporter: -2%

Results for COc1ccc2[nH]c3c(c2c1)CCN1C(=O)C(CC(=O)NCCCN(C)C)C[C@H](C(=O)N2CCCCC2)[C@@]31CCc1ccccc1 (some centres undefined) ?
Rango complex inh: 8.5%; Rango dissoc inh: 26%

Results for O=C(COc1ccc(Cl)cc1Cl)NN1C(=O)/C(=C\c2ccc(Cl)cc2)SC1=S ?
Rango complex inh: 0.2%; GLA inh pH 4.5: 0; Rango dissoc inh: -5%; miR-21 reporter: -2%

Results for Cn1/c(=N/NC(=O)c2cccc(OC(F)F)c2)sc2ccccc21 ?
Rango complex inh: -1.6%; GLA inh pH 4.5: 0; Rango dissoc inh: 12%; miR-21 reporter: -22%

What do the screens show for `COc1ccccc1NC(=O)CSc1nnc2ccccn12`?
Rango complex inh: 3.3%; Rango dissoc inh: 25%

How did Cc1ccc(SCc2nc(-c3ccccc3)no2)cc1 do in these assays?
Rango complex inh: 1.5%; GLA inh pH 4.5: -4; Rango dissoc inh: 8%; miR-21 reporter: -23%

What do the screens show for `COc1ccc(NC(=O)CN(C)C(=O)c2cn(-c3ccccc3)nc2-c2cccs2)cc1`?
Rango complex inh: 3.4%; Rango dissoc inh: -1%

How did CC(C)c1ccc(C(=O)NNC(=O)C2CC=CCC2C(=O)O)cc1 (centres undefined) do in these assays?
Rango complex inh: -1.9%; GLA inh pH 4.5: 4; Rango dissoc inh: -4%; miR-21 reporter: -52%

What do the screens show for `COc1ccccc1NC(=O)C1CCCN1S(=O)(=O)c1ccc(Cl)cc1` (centres undefined)?
Rango complex inh: 0.0%; Rango dissoc inh: 5%; miR-21 reporter: 1%

What do the screens show for `Cc1cc(C)n(-c2ccc(C(=O)Nc3ccc(C)c(S(=O)(=O)N4CCOCC4)c3)cc2)n1`?
Rango complex inh: -0.9%; GLA inh pH 4.5: -24; Rango dissoc inh: -1%; miR-21 reporter: inconclusive

Results for COc1ccc(Nc2cc(C(=O)NCCCN3CCOCC3)c3ccccc3n2)c(OC)c1 ?
Rango complex inh: -1.2%; GLA inh pH 4.5: 1; Rango dissoc inh: 0%; miR-21 reporter: 8%

What do the screens show for `CCOc1ccc(C(=S)N2CCCC2)cc1`?
Rango complex inh: 6.2%; GLA inh pH 4.5: -9; Rango dissoc inh: 1%; miR-21 reporter: -13%

What do the screens show for `CC1(C)Cc2c(c(N3CCOCC3)nc3snc(NC(=O)c4ccccc4)c23)CO1`?
Rango complex inh: -3.4%; GLA inh pH 4.5: 5; Rango dissoc inh: 3%; miR-21 reporter: 4%

Results for O=C(COC(=O)CCSc1ccc(F)cc1)NCc1ccc(F)cc1 ?
Rango complex inh: -1.0%; Rango dissoc inh: 1%

What do the screens show for `CCCN(C(=S)Nc1ccccc1)C1CCS(=O)(=O)C1` (centres undefined)?
Rango complex inh: -1.4%; GLA inh pH 4.5: -8; Rango dissoc inh: 7%; miR-21 reporter: -1%

Results for c1cc2nncn2nc1N1CCCC1 ?
Rango complex inh: 0.4%; GLA inh pH 4.5: -2; Rango dissoc inh: 0%; miR-21 reporter: -8%

At a glance, part of the list above:
What do the screens show for `COc1ccc(S(=O)(=O)CC(=O)Nc2nnc(C(F)(F)F)s2)cc1`?
Rango complex inh: 0.1%; Rango dissoc inh: 24%; miR-21 reporter: -2%

Results for COc1ccc2[nH]c3c(c2c1)CCN1C(=O)C(CC(=O)NCCCN(C)C)C[C@H](C(=O)N2CCCCC2)[C@@]31CCc1ccccc1 (some centres undefined) ?
Rango complex inh: 8.5%; Rango dissoc inh: 26%

(listing goes on)
How did O=C(O)c1cc(NCc2ccc(F)cc2)ccc1N1CCOCC1 do in these assays?
Rango complex inh: -2.5%; GLA inh pH 4.5: -2; Rango dissoc inh: 9%; miR-21 reporter: -1%

What do the screens show for `CCc1cc2c(NC(Cc3ccccc3)C(=O)O)ncnc2s1` (centres undefined)?
Rango complex inh: 5.7%; Rango dissoc inh: 1%; miR-21 reporter: -7%

What do the screens show for `CC(C)NC(=O)Nc1cccc2c1O[C@H](CN(C)S(=O)(=O)c1ccccc1)[C@@H](C)CN([C@H](C)CO)C2=O`?
Rango complex inh: -2.6%; Rango dissoc inh: 15%

What do the screens show for `Cc1ccc(S(=O)(=O)NNC(=O)CC#N)cc1`?
Rango complex inh: 3.1%; GLA inh pH 4.5: 5; Rango dissoc inh: -10%; miR-21 reporter: 3%

Results for COc1ccc(-c2[nH]ncc2CN(C)CCc2c(C)n[nH]c2C)c(F)c1 ?
Rango complex inh: 1.3%; GLA inh pH 4.5: -1; Rango dissoc inh: 21%; miR-21 reporter: -2%

Results for COc1ccc(S(=O)(=O)NCc2cc(=O)n(C)c(=O)n2C)cc1C ?
Rango complex inh: -0.4%; Rango dissoc inh: -18%; miR-21 reporter: 0%

How did Nc1ccc2c(c1)CC(=O)c1ccccc1S2 do in these assays?
Rango complex inh: -5.4%; GLA inh pH 4.5: 4; Rango dissoc inh: 14%; miR-21 reporter: -43%

What do the screens show for `NS(=O)(=O)c1cccc(NC(=O)COC(=O)Cc2ccc(S(=O)(=O)N3CCOCC3)s2)c1`?
Rango complex inh: inconclusive; Rango dissoc inh: -17%

Results for O=C(Nc1ccccn1)C(F)(F)C(F)(F)C(F)(F)C(F)(F)C(=O)Nc1ccccn1 ?
Rango complex inh: -3.7%; GLA inh pH 4.5: -2; Rango dissoc inh: 6%; miR-21 reporter: -6%

How did CCC(=O)N1CCc2cc(S(=O)(=O)CCC(=O)NC(C)CC)ccc21 (centres undefined) do in these assays?
Rango complex inh: 0.0%; GLA inh pH 4.5: -6; Rango dissoc inh: 20%; miR-21 reporter: -2%

Results for CC(Oc1ccccc1)c1ccnc2nc(/N=C/N(C)C)nn12 (centres undefined) ?
Rango complex inh: -2.2%; GLA inh pH 4.5: 3; Rango dissoc inh: -1%; miR-21 reporter: -17%

Results for O=[N+]([O-])c1ccc2oc(C3CCCCC3)nc2c1 ?
Rango complex inh: 0.4%; GLA inh pH 4.5: 4; Rango dissoc inh: 0%; miR-21 reporter: -39%

What do the screens show for `COC(=O)c1ccc(Oc2nc3c(c(=O)n(C)c(=O)n3C)n2CCC(C)C)cc1`?
Rango complex inh: -0.6%; GLA inh pH 4.5: -5; Rango dissoc inh: 1%; miR-21 reporter: -8%

How did Cc1cccn2c(=O)c3cc(C(=O)NCC(C)C)sc3nc12 do in these assays?
Rango complex inh: 0.2%; Rango dissoc inh: 1%; miR-21 reporter: -3%&-8%

What do the screens show for `CN(Cc1ccc(Cl)s1)C(=O)CCl`?
Rango complex inh: 0.6%; GLA inh pH 4.5: -3; Rango dissoc inh: 11%; miR-21 reporter: inconclusive

Results for COc1cccc(NC(=O)[C@H](NC(=O)[C@@H]2Cc3ccccc3CN2)c2ccccc2)c1 ?
Rango complex inh: 14%; Rango dissoc inh: 15%; miR-21 reporter: -32%

How did O=C(CCN1C(=O)C2C3C=CC(C3)C2C1=O)Oc1ccc2ccccc2c1 (centres undefined) do in these assays?
Rango complex inh: -1.6%; GLA inh pH 4.5: -5; Rango dissoc inh: 7%; miR-21 reporter: -7%

What do the screens show for `Cc1cc(C)c(NC(=O)CSc2nnnn2-c2cccnc2)c(C)c1`?
Rango complex inh: -0.1%; Rango dissoc inh: -3%; miR-21 reporter: 4%

How did Cc1cccc2c(=O)cc(C(F)(F)F)[nH]c12 do in these assays?
Rango complex inh: 2.5%; GLA inh pH 4.5: 7; Rango dissoc inh: -9%; miR-21 reporter: 15%

Results for CC1Cc2ccccc2N1C(=O)CSc1nncs1 (centres undefined) ?
Rango complex inh: 0.6%; Rango dissoc inh: 0%

What do the screens show for `Cc1ccc(C(=O)N2CCN(C34CC5CC(CC(C5)C3)C4)CC2)o1`?
Rango complex inh: 1.2%; Rango dissoc inh: -8%; miR-21 reporter: -6%

What do the screens show for `CC(=O)c1ccc(N2CCN(c3ccc4cc(S(=O)(=O)N5CCC(C)CC5)ccc4n3)CC2)cc1`?
Rango complex inh: -1.7%; Rango dissoc inh: -2%; miR-21 reporter: -8%&-3%

What do the screens show for `CC1CC(NC(=O)C2(C)CC2(Cl)Cl)CC(C)(C)C1` (centres undefined)?
Rango complex inh: 5.1%; GLA inh pH 4.5: -11; Rango dissoc inh: -9%; miR-21 reporter: -1%

What do the screens show for `COCCn1c(=NC(=O)c2ccco2)sc2cc(C(=O)OC)ccc21`?
Rango complex inh: -0.8%; GLA inh pH 4.5: 7; Rango dissoc inh: -3%; miR-21 reporter: -12%

How did CC(=O)Nc1ccc(NS(=O)(=O)c2ccc(C)cc2)cc1[N+](=O)[O-] do in these assays?
Rango complex inh: 3.9%; GLA inh pH 4.5: 6; Rango dissoc inh: -4%; miR-21 reporter: -3%

How did Cc1csc(NC(=O)C2CCN(C(=O)c3ccccc3C)CC2)n1 do in these assays?
Rango complex inh: -6.6%; GLA inh pH 4.5: 3; Rango dissoc inh: 13%; miR-21 reporter: 8%

How did CC1=CCC2C(=O)N(c3ccc(C)cc3)C(=O)C2C1 (centres undefined) do in these assays?
Rango complex inh: -1.5%; GLA inh pH 4.5: 7; Rango dissoc inh: -3%; miR-21 reporter: -7%

How did N/C(=N\OC(=O)COc1ccc(Br)cc1)c1cccnc1 do in these assays?
Rango complex inh: -2.7%; GLA inh pH 4.5: -4; Rango dissoc inh: -3%; miR-21 reporter: -13%

Results for CCOC(=O)C(=O)Nc1nnc(COc2ccccc2)s1 ?
Rango complex inh: 0.5%; GLA inh pH 4.5: 6; Rango dissoc inh: -1%; miR-21 reporter: -1%

What do the screens show for `CC(NC(=O)c1cccs1)c1ccc(Br)cc1` (centres undefined)?
Rango complex inh: 0.3%; Rango dissoc inh: 3%

Results for Cc1nn(C)c(=S)[nH]c1=S ?
Rango complex inh: 2.8%; Rango dissoc inh: 1%

What do the screens show for `CCO[C@H]1OC(C(=O)N2CCOCC2)=C[C@@H](c2ccc3c(c2)OCO3)[C@@H]1CCCO`?
Rango complex inh: 3.3%; GLA inh pH 4.5: 2; Rango dissoc inh: -8%; miR-21 reporter: -2%

Results for COc1ccc(C2c3ccc(O)cc3Oc3ncn4nc(-c5cccnc5)nc4c32)cc1OC (centres undefined) ?
Rango complex inh: inconclusive; GLA inh pH 4.5: -12; Rango dissoc inh: inconclusive; miR-21 reporter: -5%

How did COc1ccc(NC(=O)CSCC(=O)Nc2ccccc2N2CCCC2)cc1 do in these assays?
Rango complex inh: -2.3%; Rango dissoc inh: -2%

Results for CC(C)CNC(=O)C(=O)NN=C1CCCCCC1 ?
Rango complex inh: -2.7%; GLA inh pH 4.5: 1; Rango dissoc inh: 6%; miR-21 reporter: -3%

Results for CN=C1SC(CC(=O)Nc2ccc(F)cc2F)C(=O)N1/N=C/c1ccc(OC(F)F)c(OC)c1 (centres undefined) ?
Rango complex inh: -1.5%; GLA inh pH 4.5: 11; Rango dissoc inh: -4%; miR-21 reporter: -8%

How did O=C(C[C@@H]1C/C=C\CC[C@H](Cc2ccc(F)cc2)C(=O)OC[C@@H]2CCCN2C1=O)N[C@H](CO)Cc1ccccc1 do in these assays?
Rango complex inh: -4.4%; Rango dissoc inh: 0%

Bioassay records from PubChem BioAssay.
